Screening results as filed in PubChem.
Mtb bLac sens = beta-lactam sensitization of Mtb H37Rv, H37Rv; M. tuberculosis H37Rv growth with meropenem, percent inhibition; hits of this screen are not shown here; inhibition, % at 25 µM; 0.27% of 330,000 active;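 active = about 74% or more and at least 40 points above the plate without the antibiotic, then above 30% in a dose series; inconclusive = first-round hits that could not be retested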;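 also: growth measured after seven days incubation then overnight dye step; 0% = bacteria only wells and 100% = bacteria with antibiotic; twin plates without the antibiotic show which effects depend on it; some results filed as inactive read as strong as hits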
* hit, by the source's call; u = inconclusive. The list is partial; count on the stated rates, not on these rows.

SMILES | Mtb bLac sens
O=C(NCc1cc(C(F)(F)F)ccc1Cl)c1cccc2c1C(=O)c1ccc(N3CCOCC3)cc1S2(=O)=O | -0.8
Cc1ccccc1-c1cc(C(=O)NCc2cccs2)n(CC2CC(c3cccnc3)=NO2)n1 (stereo not drawn) | 9.7
CC1CC(C)CN(C(=O)COC(=O)c2ccc3c(c2)OCO3)C1 (stereo not drawn) | -10.8
CCOC(=O)CN[C@H]1CCC2C3CC=C4C[C@@H](O)CC[C@]4(C)C3CC[C@@]21C (stereo partly drawn) | 98.6
CC(C)=C[C@@H]1C[C@H](C)[C@H]2CC[C@H](C)c3c(O)c(O)c(C)c1c32 | 0.0
CC(NC(=O)COC(=O)c1ccc2c(=O)n3c(nc2c1)CCCCC3)c1ccccc1 (stereo not drawn) | 78.3
CC(C)NC(=O)N(C)C[C@H]1Oc2ccc(NC(=O)c3ccncc3)cc2C(=O)N([C@H](C)CO)C[C@@H]1C | -6.6
Cc1cc(=O)oc2cc(OCC(=O)N3CCOCC3)c(Cl)cc12 | -6.8
CC(C)n1cc(/C=N/Nc2ccc(Cl)c(C(=O)O)c2)c2ccccc21 | 3.7
Cc1cnc(C(=O)OCC(=O)Nc2sc3c(c2C(N)=O)CCCC3)cn1 | 1.2
Nc1ncccc1C(=O)OCC(=O)NC1CCCCCC1 | 9.6
O=C(CCc1nc(-c2ccc(F)cc2)no1)NCc1ccccc1CN1CCOCC1 | -6.8
O=C(NCc1ccc(F)cc1)C1CC(=O)N(C2CCCC2)C1 (stereo not drawn) | -2.9
COc1ccc(C2=CN(Cc3ccccc3)CCC2=O)cc1 | -5.7
CC1CC(C)CN(C(=O)COC(=O)c2ccc3ncsc3c2)C1 (stereo not drawn) | 60.3
Cc1ccc2cccc(OCC(=O)NCCC3=CCCCC3)c2n1 | 32.5
O=C(NCc1ccc(F)cc1)c1cccc2c1C(=O)c1ccc(N3CCC(Cc4ccccc4)CC3)cc1S2(=O)=O | 5.8
CCCOc1ccc(C(=O)Nc2cc(S(=O)(=O)N3CCOCC3)ccc2N2CCOCC2)cc1 | 0.7
COc1ccc(CCNC(=O)c2cccc(S(=O)(=O)N3CCCC3)c2)cc1OC | -7.5
O=C(NCCN1CCN(C(=O)c2ccc([N+](=O)[O-])cc2)CC1)C(=O)Nc1ccc(F)cc1 | u
CN(C)C(CNC(=O)c1ccc(Cl)c(S(=O)(=O)N2CCCCCC2)c1)c1ccccc1 (stereo not drawn) | -1.7
C=CCOc1ccc(CN(C)C(=O)c2ccc(CNS(=O)(=O)c3ccc(C)c(C)c3)cc2)cc1 | -5.2
Cc1noc(C)c1NC(=O)Nc1cccc2c1O[C@@H](CN(C)C(=O)Nc1ccc3c(c1)OCO3)[C@@H](C)CN([C@H](C)CO)C2=O | -1.8
O=C(NNC(=O)c1ccc(F)c(S(=O)(=O)N2CCOCC2)c1)c1ccc([N+](=O)[O-])cc1 | -2.5
CCN(CC)S(=O)(=O)c1cc(NC(=O)C2CSC3(C)CCC(=O)N23)ccc1C (stereo not drawn) | -7.2
O=C(c1n[nH]c(=O)c2ccccc12)N1CCN(S(=O)(=O)c2ccccc2Cl)CC1 | -0.2
COc1cc(/C=C/C(=O)OCC(=O)N2CCCC2)cc(OC)c1OC | 5.3
C[C@H](CO)N1C[C@H](C)[C@@H](CN(C)S(=O)(=O)c2ccc(F)cc2)Oc2ccc(NC(=O)CCC(F)(F)F)cc2C1=O | -5.7
Cc1cc(C)cc(-n2c(=O)c3ccccc3n(CC(=O)NCC3CCCO3)c2=O)c1 (stereo not drawn) | -10.3
Cc1ncc(CNC(=O)N(CCCl)N=O)c(N)n1 | 6.3
COc1ccc(CNC(=O)COC(=O)c2ccc(OCC3CCCO3)cc2)cc1 (stereo not drawn) | 1.4
CCOC(=O)[C@H]1[C@H]2COc3cc(OC)ccc3[C@@H]2N2C(=O)CN(Cc3ccc(OC)cc3)C(=O)[C@@]12C | -7.5
CCOc1ccccc1/C=C(\C(=O)O)c1ccc(S(=O)(=O)N2CCCCC2)s1 | -5.7
COc1ccc2sc(-c3ccccc3OC)c(-c3ccc(OC)c(F)c3)c2c1 | 9.1
O=C(OCC(=O)N1CCC(Cc2ccccc2)CC1)c1ccccc1F | 55.7
O=C(c1ccccc1F)N1CCN(C(=O)C(c2ccccc2)c2ccccc2)CC1 | -24.7
COc1ccc(NC(=O)c2ccccc2C)cc1 | -2.3
CCOc1cc(C=NNC(=O)c2cccc(S(=O)(=O)N3CCCC3)c2)ccc1O | -4.0
COc1cccc(-c2ncc3ccccc3c2COC(=O)N(C)C)c1 | 2.9
COc1cc(NC(=O)c2cc3ccccc3o2)ccc1NC(=O)c1ccco1 | 2.1

Rewritten with tabs: part of the list above.
smiles	Mtb bLac sens
COc1ccc(NC(=O)c2ccccc2C)cc1	-2.3
CCOc1cc(C=NNC(=O)c2cccc(S(=O)(=O)N3CCCC3)c2)ccc1O	-4.0

(more compounds)
SMILES | Mtb bLac sens
O=C(COC(=O)/C=C/c1ccc(C(F)(F)F)cc1)NC(=O)NCc1ccco1 | 6.9
CN1CCC(N(C)C(=O)COc2ccccc2Cl)CC1 | -5.2
Cn1ccc(C(=O)N/N=C/c2cccnc2)n1 | 1.3
Cc1cccc(C#Cc2ccccc2)n1 | -4.0
COc1ccccc1NS(=O)(=O)c1cccc(NC(=O)c2cncc(Br)c2)c1 | -2.3
COc1ccc(-c2coc3cc(O)c(OC)cc3c2=O)cc1 | -8.1
COc1ccccc1NC(=O)CNC(c1ccccc1)c1ccccc1 | 1.9
Cc1ccc(S(=O)(=O)N2CCCC(C(=O)NC3CCCC3)C2)cc1 (stereo not drawn) | 2.3
O=C(C1=C(O)C(=O)N(CC2CCCO2)C1c1ccc(Cl)cc1Cl)c1ccco1 (stereo not drawn) | 7.8
CN(Cc1nc2ccccc2c(=O)[nH]1)C(=O)c1cc(C2CC2)nn1-c1ccccc1 | -8.7
COC(=O)c1ccc(NC(=O)COc2ccc(N(C)S(=O)(=O)c3ccc(C)cc3)cc2)cc1 | -12.7
CCCn1c(N)c(N2CCCCC2)c(=O)n(CC(=O)Nc2ccc(C(C)=O)cc2)c1=O | -3.8
O=c1ccc(S(=O)(=O)N2CCCC2)cn1Cc1ccc(F)cc1 | 4.9
COc1ccc(NC(=O)Nc2ccc3c(c2)C(=O)N([C@H](C)CO)C[C@H](C)[C@@H](CN(C)S(C)(=O)=O)O3)cc1 | -0.5
Cn1c(Cc2ccccc2)nnc1SCC(=O)Nc1ccc(N2CCOCC2)cc1 | 0.0
Cn1cncc1C#Cc1c(C=O)[nH]c2ccccc12 | 1.7
COC(=O)C1=C(c2cccc(OCc3ccccc3)c2)C[C@@H]2CC[C@H]1N2C(=O)NCc1cccc(C(F)(F)F)c1 | 14.2
COc1cccc(S(=O)(=O)NCc2ccc(C(=O)N3CCN(c4ccccc4OC)CC3)cc2)c1 | u
Cc1cc(OCC(=O)N2CCN(CC(=O)N3CCOCC3)CC2)c(C(C)C)cc1Cl | -6.2
Clc1ccc(C(c2ccccc2Cl)C(Cl)Cl)cc1 (stereo not drawn) | 3.4
COc1ccc(S(=O)(=O)N2CCOCC2)cc1NC(=O)CSc1nnc(NC2CC2)s1 | 1.4
CC(OC(=O)CCC(=O)c1cccs1)C(=O)NC1CCCCC1C (stereo not drawn) | -4.5
CC1(NC(=O)Cc2c(Cl)cccc2Cl)CCS(=O)(=O)C1 (stereo not drawn) | 3.7
COc1cc(CNC(=O)C2CC2)ccc1OCc1ccccc1 | -1.1
CC(C)c1ccccc1NC(=O)CN1C(=O)c2ccccc2C1=O | -10.8
COc1ccc(-c2nc(-c3ccncc3)no2)c(OC)c1 | 2.8
Cc1ccc(O)c(NC(=O)C2CC(c3cccc(Br)c3)=NO2)c1 (stereo not drawn) | -13.6
O=C(COC(=O)COc1ccccc1F)NCc1ccco1 | -1.9
COc1ccc(C(CNC(=O)C2CC(=O)N(Cc3ccccc3)C2)N2CCCC2)cc1 (stereo not drawn) | 12.5
COC(=O)[C@@]12OC[C@]34[C@H]([C@@H](O)[C@@H]1O)[C@@]1(C)C(=O)C(O[C@@H]5OC(CO)[C@@H](O)[C@@H](O)[C@@H]5O)=C[C@@H](C)[C@@H]1C[C@H]3OC(=O)[C@H](OC(=O)/C=C(\C)C(C)(C)OC(C)=O)[C@@H]24 (stereo partly drawn) | -7.6
COc1ccc(NC(=O)N(C)C[C@H]2Oc3ccc(NC(=O)CCN4CCOCC4)cc3C(=O)N([C@H](C)CO)C[C@@H]2C)cc1 | -1.2
COc1cccc(N2CCN(C(=O)c3cn(Cc4ccccc4)nc3-c3cccnc3)CC2)c1 | -9.7
CC(NC(=O)COC(=O)CN1C(=O)c2ccccc2C1=O)c1ccccc1 (stereo not drawn) | 0.5
COc1ccc(CNC(=O)COC(=O)c2[nH]c(C)c(C(C)=O)c2C)cc1OC | -1.1
CSc1ncccc1C(=O)OCC(=O)N1CCCC1 | -0.9
COc1ccccc1CC(=O)Nc1ccc2c(c1)OC1(CCCC1)O2 | -8.1
CCCCN1CC(=O)N2[C@H]3c4ccccc4OC[C@@H]3[C@H](c3ccccc3)[C@]2(C)C1=O | 6.5
COc1cccc(/C=C/C(=O)OCC(=O)c2c(N)n(C)c(=O)n(C)c2=O)c1 | 12.1
O=C(N[C@@H]1C/C=C\C[C@@H](CC(=O)N(CCO)Cc2ccccc2)C(=O)NCCOC1=O)OCC1c2ccccc2-c2ccccc21 | 11.6
O=C1CN(C(=O)COC(=O)CCS(=O)(=O)c2ccccc2)c2ccccc2N1 | 7.2
COc1ccccc1NC(=O)C(C)OC(=O)CC1CCCCC1 (stereo not drawn) | 6.1
O=C1C2(Cl)C3(Cl)C4(Cl)C(Cl)(Cl)C5(Cl)C3(Cl)C1(Cl)C5(Cl)C24Cl (stereo not drawn) | 95.1
CC1CCCCC1NC(=O)COC(=O)COc1ccccc1F (stereo not drawn) | 5.2
Cc1ccc(C2(C)NC(=O)N(CC(=O)c3ccc4c(c3)OCCO4)C2=O)cc1 (stereo not drawn) | -3.2
NS(=O)(=O)c1ccc(CCNC(=O)C2CCN(C(=O)Nc3ccccc3)CC2)cc1 | -8.9
Cc1cc(C(=O)OCC(=O)Nc2ccccc2Br)c(C)o1 | -3.1
CN(c1ccccc1)S(=O)(=O)c1cccc(C(=O)NCc2ccccc2)c1 | -10.6
COc1cc(OC)cc(C(=O)NNC(=O)CCc2nc3ccccc3c(=O)[nH]2)c1 | -2.6
Cc1ccc(NC(=O)C2C3C=CC4(O3)C2C(=O)N(CCN2CCOCC2)C4C(=O)NC2CCCCC2)cc1C (stereo not drawn) | -2.5
Cc1ccc(C(C(=O)NCc2ccccc2)N(C(=O)c2csnn2)C2CC2)cc1 (stereo not drawn) | 12.6

Some values from the results shown.
`C[C@H](CO)N1C[C@H](C)[C@@H](CN(C)S(=O)(=O)c2ccc(F)cc2)Oc2ccc(NC(=O)CCC(F)(F)F)cc2C1=O` @ Mtb bLac sens: -5.7
`COc1ccc(C(CNC(=O)C2CC(=O)N(Cc3ccccc3)C2)N2CCCC2)cc1` (stereo not drawn) @ Mtb bLac sens: 12.5

The results go on:
SMILES | Mtb bLac sens
CC1(C)Oc2cc3oc(=O)ccc3cc2C[C@@H]1O | 2.6
O=C(CN1C(=O)NC(c2ccccc2)(c2ccccc2)C1=O)N1CCCCC1 | 3.5
COc1ccc(S(=O)(=O)N(C)C[C@H]2Oc3c(NC(=O)NC4CCCCC4)cccc3C(=O)N([C@H](C)CO)C[C@@H]2C)cc1 | 2.3
Cc1ccc(CNC(=O)C2CC(=O)N(C3CCCC3)C2)cc1 (stereo not drawn) | -1.7
CN(C)S(=O)(=O)c1ccc(NC(=O)CN2C(=O)NC(Cc3ccccc3)C2=O)cc1 (stereo not drawn) | -7.5
CCCCn1c(N)c(N(CCC(C)C)C(=O)C2CCCC2)c(=O)[nH]c1=O | 3.0
O=C(COC(=O)c1cc[n+]([O-])cc1)NC(=O)c1ccc(OC(F)F)cc1 | -1.7
CC(C(=O)NCc1ccccc1Cl)n1cc([N+](=O)[O-])cn1 (stereo not drawn) | 2.1
CCOC(=O)[C@H]1[C@H]2COc3ccc(C)cc3[C@@H]2N2C(=O)CN(Cc3ccc(Cl)cc3)C(=O)[C@@]12C | -8.9
Cc1cccc(C(=O)Nc2cccc(S(=O)(=O)NCc3ccco3)c2)c1 | -4.4

Compounds listed so far with a nitro group on carbon (3):
SMILES | Mtb bLac sens
O=C(NCCN1CCN(C(=O)c2ccc([N+](=O)[O-])cc2)CC1)C(=O)Nc1ccc(F)cc1 | u
O=C(NNC(=O)c1ccc(F)c(S(=O)(=O)N2CCOCC2)c1)c1ccc([N+](=O)[O-])cc1 | -2.5
CC(C(=O)NCc1ccccc1Cl)n1cc([N+](=O)[O-])cn1 (stereo not drawn) | 2.1

The list continues:
SMILES | Mtb bLac sens
C[C@H](CO)N1C[C@H](C)[C@@H](CN(C)C(=O)NC2CCCCC2)Oc2c(NC(=O)Cc3ccccc3)cccc2C1=O | -1.5
CC(=O)Oc1ccc(C(=O)NC(C)CCc2ccccc2)cc1 (stereo not drawn) | 2.3
O=C(COC(=O)COc1ccc(Br)cc1)NCC1CCCO1 (stereo not drawn) | -3.1
O=C(CSc1ccccc1)Nc1ccc(Cl)c(S(=O)(=O)N2CCOCC2)c1 | -2.3
CC(=O)OCC1=C(C(=O)O)N2C(=O)C(NC(=O)CC(C)c3ccccc3)C2SC1 (stereo not drawn) | 9.6
Cc1nnc(NC(=O)CSc2nnc(CC(=O)Nc3ccccc3F)n2C)s1 | -2.5
O=C(CNC(=O)c1cccs1)NCCc1ccco1 | 5.3
Cc1ccc(/C(O)=C2/C(=O)C(=O)N(CC(=O)O)C2c2ccc([N+](=O)[O-])cc2)cc1 (stereo not drawn) | -16.5
CC(C(=O)Nc1nc(-c2ccc(F)c(F)c2)cs1)N1C(=O)C2CC=CCC2C1=O (stereo not drawn) | -6.8

Two of the compounds above, as tab-separated lines.
Compound	Mtb bLac sens
CC(C)=C[C@@H]1C[C@H](C)[C@H]2CC[C@H](C)c3c(O)c(O)c(C)c1c32	0.0
CC(NC(=O)COC(=O)c1ccc2c(=O)n3c(nc2c1)CCCCC3)c1ccccc1 (stereo not drawn)	78.3
